Screening results: PubChem, several laboratories
FGF22 binding – binders of recombinant human FGF22 by thermal shift; SYPRO orange fluorescence; percent of sucrose octasulfate shift, DMSO zero; calls only at 9.99 µM; 1.5% of 340,000 active; AID 651658;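 active = melting point raised past a set limit in the mean and every replicate; three in four hits are not shown here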
UCH37 DUB inh – blocks the human deubiquitinase UCH37; inhibition, % (no concentration beside the values); 0.33% of 330,000 active; purified proteasome/UCH37, Ub-AMC cleavage fluorescence; Q9Y5K5;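 active = mean of two replicates above 20%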;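 also: 0% = compound-free wells with enzyme and 100% = wells lacking proteasome; stock transfer was 100 nL into about 20 µL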
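Material: human UCH37 enzyme supplied as purified proteasome complex / Amount: 0.15 nM proteasome as dispensed / Buffer or medium: pH 7.4 Tris-HCl (50 mM) with ovalbumin, ATP-MgCl2, DTT / Times: preincubation 30 min, reaction 25 min, room temperature / Technique: AMC fluorescence from Ub-AMC cleavage, excitation 355 nm, emission 460 nm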
E coli growth – blocks Escherichia coli growth; OD600, 23 h; stronger effect = lower value; OD600 absorbance (concentration not given with the values); 0.21% of 330,000 active;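 active = OD600 absorbance below the run mean of sample wells minus 3.6 SD, in any replicate, cut at about 0.56 in these data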;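 also: stock transfer was 300 nL into about 60 µL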
ALR inh – human ALR oxidase inhibition via reduced H2O2; 3.8% of 290,000 active; purified ALR, DTT oxidation, H2O2 HRP-luminol luminescence; P55789; AID 485317; inhibition, % (no concentration beside the values);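 active = mean and each replicate at 75% or more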;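 also: stock transfer was 7.5 nL into about 7.5 µL; 0% = neutral wells and 100% = wells with inactivated enzyme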
Target sequence (P55789 whole entry, looked up): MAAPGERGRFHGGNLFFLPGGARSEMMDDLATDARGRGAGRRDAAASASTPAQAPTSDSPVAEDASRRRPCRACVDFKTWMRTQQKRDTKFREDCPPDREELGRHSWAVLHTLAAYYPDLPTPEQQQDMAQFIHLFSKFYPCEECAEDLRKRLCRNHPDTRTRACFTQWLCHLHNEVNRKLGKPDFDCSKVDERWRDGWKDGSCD
LANA-H2A inh – blocks KSHV LANA binding to histone H2A/H2B; AID 2629; cell-free LANA-H2A/H2B peptide, fluorescence polarization; inhibition, % (concentration not given with the values); 0.6% of 320,000 active; Q9QR71; in the data active = inhibition mostly above about 10%, no sharp cut-off; inactive = mostly below about 6.7%;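 also: stock transfer was 7.5 nL into about 10 µL; 0% = median of vehicle wells and 100% = median of positive control wells; one replicate is shown; the record names a cut of 25% in any replicate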
HNF4A DNA FP – change in binding of human HNF4 alpha to DNA. 0.3% of 360,000 active. AID 1224865. HNF4a-FITC DNA binding, fluorescence polarization, 1 h. P41235. activity change, % at 10 µM; in the data active = activity change above about 30%, passing the limit was not always enough;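 also: controls were the assay level and a saturating level of protein; the project sought stronger binding though the title names inhibitors; some compounds called inactive have numbers as strong as hits; positive values seem to mean higher polarization but the record does not say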
Target sequence (P41235 whole entry, looked up): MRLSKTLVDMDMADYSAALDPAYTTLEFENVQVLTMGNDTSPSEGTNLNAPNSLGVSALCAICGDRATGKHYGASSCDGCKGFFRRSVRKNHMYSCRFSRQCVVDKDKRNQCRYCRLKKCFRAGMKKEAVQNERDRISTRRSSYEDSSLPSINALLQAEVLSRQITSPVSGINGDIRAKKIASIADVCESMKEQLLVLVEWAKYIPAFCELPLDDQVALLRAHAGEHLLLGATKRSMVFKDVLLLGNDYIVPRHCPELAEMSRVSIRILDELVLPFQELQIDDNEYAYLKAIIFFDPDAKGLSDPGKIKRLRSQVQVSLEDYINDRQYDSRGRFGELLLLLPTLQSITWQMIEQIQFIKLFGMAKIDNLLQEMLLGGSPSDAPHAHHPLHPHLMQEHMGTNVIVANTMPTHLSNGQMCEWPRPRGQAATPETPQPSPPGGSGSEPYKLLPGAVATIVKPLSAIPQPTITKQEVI
B2AR ag – human beta-2 adrenergic receptor agonism by FAP | P07550 | Am2.2-beta2AR cells, FAP receptor internalization, flow cytometry; reference of the scale not given here | 0.43% of 340,000 active | response, % (concentration not given with the values) | AID 504454;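 active = response above a set limit, near 3 SD of response in nonfluorescent compounds, cut at about 42% in these data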;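 also: stock transfer was 100 nL into about 11 µL; a reference agonist was the positive control; negative values mostly stem from fluorescent compounds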
Target sequence (P07550 whole entry, looked up): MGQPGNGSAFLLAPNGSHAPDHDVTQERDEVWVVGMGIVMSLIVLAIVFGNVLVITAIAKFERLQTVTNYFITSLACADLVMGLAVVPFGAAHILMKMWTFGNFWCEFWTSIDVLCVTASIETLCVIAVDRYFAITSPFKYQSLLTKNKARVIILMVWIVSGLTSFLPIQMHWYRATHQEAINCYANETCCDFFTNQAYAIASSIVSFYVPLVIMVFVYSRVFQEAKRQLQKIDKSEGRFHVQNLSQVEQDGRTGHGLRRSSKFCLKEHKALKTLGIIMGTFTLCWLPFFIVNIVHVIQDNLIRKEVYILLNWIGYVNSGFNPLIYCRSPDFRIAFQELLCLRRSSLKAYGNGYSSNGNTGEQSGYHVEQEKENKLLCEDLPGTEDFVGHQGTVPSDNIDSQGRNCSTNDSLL
* hit, by the source's call. This is a subset; count on the stated rates, not on these rows.

`O=C(Nc1cccc(Cl)c1)C1C2C=CC3(O2)C1C(=O)N(CCN1CCCCC1)C3C(=O)NC1CCCCC1` (centres undefined) gave FGF22 binding inactive, UCH37 DUB inh 3.3, E coli growth 0.675, ALR inh -7.1, LANA-H2A inh -4.4, HNF4A DNA FP 1.8 and B2AR ag -7.5.
Screening CCOc1cc(-c2sc(Nc3ccccc3)n[n+]2-c2ccc(F)cc2)ccc1OC returned FGF22 binding inactive, UCH37 DUB inh -1.0, E coli growth 0.705, ALR inh 12.0, LANA-H2A inh -1.9, HNF4A DNA FP -1.0 and B2AR ag 0.8.
For CC1CCCCC1NC(=O)c1cccc(S(=O)(=O)N2CCN(Cc3ccccc3)CC2)c1 (centres undefined) the results were FGF22 binding inactive, UCH37 DUB inh 3.6, E coli growth 0.675, ALR inh 8.6, LANA-H2A inh 1.4, HNF4A DNA FP 0.2 and B2AR ag -5.2.
Screening Cc1ccc(/C=C(\C#N)c2nn(-c3ccccc3)c(N)c2C#N)cc1 returned UCH37 DUB inh -0.8, E coli growth 0.71, ALR inh 4.0, LANA-H2A inh 1.3, HNF4A DNA FP 7.3 and B2AR ag 1.0.
`COC(c1ccccc1)c1nnc(CCC(=O)NCc2cccc(-n3cccn3)c2)o1` (centres undefined) gave FGF22 binding inactive, UCH37 DUB inh 6.7, E coli growth 0.702, ALR inh -7.7, LANA-H2A inh 5.3, HNF4A DNA FP 3.3 and B2AR ag -6.1.
Cc1ccccc1N(CC(=O)NC1CCCCC1)C(=O)c1csnn1 was read as FGF22 binding inactive, UCH37 DUB inh 0.6, E coli growth 0.684, ALR inh -2.0, LANA-H2A inh 5.6, HNF4A DNA FP -0.8 and B2AR ag -1.9.
COc1ccc(-c2c(C(F)(F)F)[nH]n3c(=O)cc(-c4ccccc4)nc23)cc1 was read as FGF22 binding inactive, UCH37 DUB inh -277.1, E coli growth 0.67, ALR inh -12.2, LANA-H2A inh -2.8, HNF4A DNA FP -3.0 and B2AR ag 10.1.
For NC(=O)CN1CCCN(S(=O)(=O)c2ccc(Br)cc2)CC1 the results were UCH37 DUB inh 0.1, E coli growth 0.74, ALR inh -5.4, LANA-H2A inh 3.6, HNF4A DNA FP -0.2 and B2AR ag -13.0.
Screening O=S(=O)(Nc1ccccc1)c1cccc2nsnc12 returned FGF22 binding inactive, UCH37 DUB inh 4.6, E coli growth 0.7, ALR inh -6.9, LANA-H2A inh -1.6, HNF4A DNA FP -4.7 and B2AR ag 0.6.
O=C(NC1CCCC1)c1nc2c(nnn2Cc2cccc(Cl)c2)c(=O)[nH]1 was read as UCH37 DUB inh 5.8, E coli growth 0.666, ALR inh 57.9, LANA-H2A inh -0.8, HNF4A DNA FP 3.1 and B2AR ag 1.9.
Screening Cn1cc2ccc([N+](=O)[O-])cc2n1 returned FGF22 binding inactive, UCH37 DUB inh 3.3, E coli growth 0.674, ALR inh -5.4, LANA-H2A inh -5.3, HNF4A DNA FP 0.1 and B2AR ag 3.2.
Screening CC(C)(C)c1cc[n+](C2=C([O-])c3ccccc3C(=O)/C2=N\S(=O)(=O)c2ccccc2)cc1 returned FGF22 binding inactive, UCH37 DUB inh 9.7, E coli growth 0.653, ALR inh -26.3, LANA-H2A inh 0.9, HNF4A DNA FP -4.1 and B2AR ag 1.0.
CCOC(=O)c1cccc(NC(=O)C2CCN(c3ncnc4c3nc3n4CCCCC3)CC2)c1 was read as FGF22 binding inactive, UCH37 DUB inh 2.0, E coli growth 0.727, ALR inh 1.3, LANA-H2A inh -0.7, HNF4A DNA FP 1.4 and B2AR ag 4.4.
COc1cccc(C(=O)N2CCN(C(=O)C3CC3)CC2)c1 was read as FGF22 binding inactive, UCH37 DUB inh 0.1, E coli growth 0.661, HNF4A DNA FP -0.1 and B2AR ag -0.3.
Screening CCCCN(C(=O)Cn1ncc(Cl)c(Cl)c1=O)c1c(N)n(CC(C)C)c(=O)[nH]c1=O returned UCH37 DUB inh 4.4, E coli growth 0.701, ALR inh 0.8, LANA-H2A inh 0.9, HNF4A DNA FP -25.2 and B2AR ag 10.6.
For Cc1ccc(NC(=O)N2CCN(C)CC2)cc1NC(=O)N1CCN(C)CC1 the results were FGF22 binding inactive, UCH37 DUB inh 2.8, E coli growth 0.64, ALR inh -10.4, LANA-H2A inh 1.4, HNF4A DNA FP 6.3 and B2AR ag -2.9.
`Cc1cc(C)nc(NS(=O)(=O)c2ccc(NC(=O)CSc3ncn[nH]3)cc2)n1` gave UCH37 DUB inh 3.1, E coli growth 0.685, ALR inh -0.1, LANA-H2A inh -2.4, HNF4A DNA FP 1.4 and B2AR ag -0.7.
Screening CCn1c(SCC(=O)N2CCC(C)CC2)nnc1-c1ccc(S(=O)(=O)N2CCN(C)CC2)cc1 returned UCH37 DUB inh -0.7, E coli growth 0.67, ALR inh -15.6, LANA-H2A inh -2.0, HNF4A DNA FP 4.0 and B2AR ag 7.7.
COc1ccc(CN2C(=O)c3ccccc3C2=O)cc1C(=O)Nc1ccccc1N1CCOCC1 was read as FGF22 binding inactive, UCH37 DUB inh 2.9, E coli growth 0.723, LANA-H2A inh -1.3, HNF4A DNA FP 0.9 and B2AR ag 12.5.
Screening CCOC(=O)CCCOC(=O)c1ccc(S(=O)(=O)N(C)C)cc1 returned UCH37 DUB inh 0.8, E coli growth 0.723, ALR inh -2.3, LANA-H2A inh -4.8, HNF4A DNA FP 5.6 and B2AR ag 3.7.
For CCn1nc([N+](=O)[O-])c2c(-c3nc4ccccc4o3)c(N)n(CCCOC)c2c1=O the results were UCH37 DUB inh -2.5, E coli growth 0.728, ALR inh 56.6, LANA-H2A inh 0.1, HNF4A DNA FP -9.2 and B2AR ag -0.7.
`C=CCOc1ccc(NC(=O)C2CC(=O)N(C(C)C)C2)cc1` (centres undefined) gave UCH37 DUB inh 1.9, E coli growth 0.694, ALR inh -5.9, LANA-H2A inh 2.0, HNF4A DNA FP -2.1 and B2AR ag -3.1.
O=C(COc1ccccc1Cl)NCCNC(=O)c1cccnc1 was read as FGF22 binding inactive, UCH37 DUB inh 4.5, E coli growth 0.702, ALR inh -0.2, LANA-H2A inh 2.2, HNF4A DNA FP -4.0 and B2AR ag -1.3.
CC1CCc2sc(C(=O)Nc3ccc(C(N)=O)cc3)cc2C1 (centres undefined) was read as FGF22 binding inactive, UCH37 DUB inh -12.0, E coli growth 0.666, ALR inh -18.5, LANA-H2A inh 1.0, HNF4A DNA FP 1.3 and B2AR ag 7.5.

Random excerpt: 2 records from the list, in no set order.
For Cc1ccc(NC(=O)N2CCN(C)CC2)cc1NC(=O)N1CCN(C)CC1 the results were FGF22 binding inactive, UCH37 DUB inh 2.8, E coli growth 0.64, ALR inh -10.4, LANA-H2A inh 1.4, HNF4A DNA FP 6.3 and B2AR ag -2.9.
Screening CCCCN(C(=O)Cn1ncc(Cl)c(Cl)c1=O)c1c(N)n(CC(C)C)c(=O)[nH]c1=O returned UCH37 DUB inh 4.4, E coli growth 0.701, ALR inh 0.8, LANA-H2A inh 0.9, HNF4A DNA FP -25.2 and B2AR ag 10.6.

In the list so far, 2 have an aryl thioether with sulfur outside any ring.
`Cc1cc(C)nc(NS(=O)(=O)c2ccc(NC(=O)CSc3ncn[nH]3)cc2)n1` gave UCH37 DUB inh 3.1, E coli growth 0.685, ALR inh -0.1, LANA-H2A inh -2.4, HNF4A DNA FP 1.4 and B2AR ag -0.7.
Screening CCn1c(SCC(=O)N2CCC(C)CC2)nnc1-c1ccc(S(=O)(=O)N2CCN(C)CC2)cc1 returned UCH37 DUB inh -0.7, E coli growth 0.67, ALR inh -15.6, LANA-H2A inh -2.0, HNF4A DNA FP 4.0 and B2AR ag 7.7.

Other entries.
`O=C(Nc1cc2c(oc1=O)CCCC2=O)c1cccc(Cl)c1` gave UCH37 DUB inh 0.8, E coli growth 0.68, ALR inh -11.5, LANA-H2A inh -4.4, HNF4A DNA FP -2.5 and B2AR ag -16.5.
Screening Cc1nn(-c2ccccc2)c(Cl)c1C(=O)OC(C)C(=O)NC(=O)NC1CCCCC1 (centres undefined) returned UCH37 DUB inh 0.0, E coli growth 0.658, ALR inh -10.4, LANA-H2A inh -1.7, HNF4A DNA FP 6.7 and B2AR ag -8.9.
`Cc1ccc2c(c1)-c1ncc(C(=O)c3cc(Br)ccc3O)cc1CO2` gave FGF22 binding inactive, UCH37 DUB inh -15.8, E coli growth 0.683, ALR inh -5.5 and LANA-H2A inh 2.0.
For Cc1ccccc1-n1ncc2c1CC(C)(C)CC2NC(=O)CCn1cncn1 (centres undefined) the results were FGF22 binding inactive, UCH37 DUB inh 5.0, E coli growth 0.705, HNF4A DNA FP 0.3 and B2AR ag -0.2.
`O=S(=O)(c1c(F)cccc1F)N1CCN(C(=S)NCc2ccc3c(c2)OCO3)CC1` gave FGF22 binding inactive, UCH37 DUB inh 3.4, E coli growth 0.711, ALR inh -1.5, LANA-H2A inh -7.4, HNF4A DNA FP 7.0 and B2AR ag -2.4.
Cn1c(NC(=O)c2cccc(Cn3cc(Cl)cn3)c2)nc2ccccc21 was read as UCH37 DUB inh -52.4, E coli growth 0.721, ALR inh 1.3, LANA-H2A inh 0.2, HNF4A DNA FP -0.7 and B2AR ag -16.0.
Screening Cc1ccc(CNC(=O)C(NS(=O)(=O)c2cccc3nsnc23)C(C)C)cc1 (centres undefined) returned FGF22 binding inactive, UCH37 DUB inh 1.4, E coli growth 0.695, ALR inh 2.0, HNF4A DNA FP -2.8 and B2AR ag -2.6.
Cc1ccc(C(=O)Nc2ccc3[nH]c(=O)[nH]c3c2)c(C)c1 was read as FGF22 binding inactive, UCH37 DUB inh 0.6, E coli growth 0.612, ALR inh -2.4, LANA-H2A inh 0.7, HNF4A DNA FP -1.9 and B2AR ag 5.1.
Screening C=CCNC(=O)CC(=O)N/N=C/c1ccccc1F returned LANA-H2A inh 1.6, HNF4A DNA FP 0.9 and B2AR ag -0.6.
For c1ccc2c3c(c(CN4CCCCC4)cc2c1)COC3 the results were FGF22 binding inactive, UCH37 DUB inh 3.9, E coli growth 0.674, ALR inh -9.4, LANA-H2A inh 2.4, HNF4A DNA FP 4.1 and B2AR ag -12.8.
COc1cc(C(=O)NCC(=O)OCc2ccc(F)cc2)cc(OC)c1OC was read as FGF22 binding inactive, UCH37 DUB inh 2.1, E coli growth 0.694, ALR inh 0.2, LANA-H2A inh 4.2, HNF4A DNA FP -0.9 and B2AR ag 0.7.
O=S(=O)(c1ccc2ccccc2c1)N1CCCOC1 was read as UCH37 DUB inh 1.9, E coli growth 0.708, LANA-H2A inh -2.6, HNF4A DNA FP 4.3 and B2AR ag 2.6.
c1csc(-c2nnc3ccccn23)c1 was read as UCH37 DUB inh -11.1, E coli growth 0.677, ALR inh -5.8, LANA-H2A inh -3.3, HNF4A DNA FP 1.5 and B2AR ag 0.0.
For Cc1ccc(S(=O)(=O)Nc2ccccc2-c2ccccc2)cc1 the results were UCH37 DUB inh 2.6, E coli growth 0.698, LANA-H2A inh 3.4, HNF4A DNA FP -3.9 and B2AR ag -1.8.
`CC(=O)c1cc(N2CCC(C(=O)O)CC2)ccc1[N+](=O)[O-]` gave UCH37 DUB inh 10.7, E coli growth 0.648, ALR inh -6.8, LANA-H2A inh 1.6, HNF4A DNA FP 6.2 and B2AR ag -1.8.
CCO[C@@H]1OC(C(=O)N2CCOCC2)=C[C@H](c2coc3ccccc3c2=O)[C@H]1CCCO was read as FGF22 binding inactive, UCH37 DUB inh 3.2, ALR inh 12.2, LANA-H2A inh 1.7, HNF4A DNA FP -5.6 and B2AR ag -18.7.
Screening c1ccc(CCNc2nc(-c3cccnc3)cs2)cc1 returned FGF22 binding inactive, UCH37 DUB inh 0.6, E coli growth 0.661, ALR inh -4.1, LANA-H2A inh 6.7, HNF4A DNA FP -1.0 and B2AR ag -8.3.
`Cc1ccsc1C(=O)OCC(=O)NCC1CCCO1` (centres undefined) gave UCH37 DUB inh -1.0, E coli growth 0.731, ALR inh -10.3, LANA-H2A inh 2.5, HNF4A DNA FP 0.7 and B2AR ag -4.5.
COc1ccc(NS(=O)(=O)c2ccc3c(c2)N(C(C)=O)CC(C)S3)c(OC)c1 (centres undefined) was read as FGF22 binding inactive, UCH37 DUB inh 0.4, E coli growth 0.665, ALR inh -5.7, LANA-H2A inh 2.1, HNF4A DNA FP -0.3 and B2AR ag -2.9.
